# CBX7 inh – CBX7 chromodomain binding inhibitors, primary screen, biochemical, AlphaScreen. Chromobox protein homolog 7 (Homo sapiens), O95931. AlphaScreen His6-CBX7 / biotin-H3K27me3 peptide binding; hits give low values. normalised signal (fraction of DMSO) (test concentration not listed). hit rate 1.1% among 66,000. AID 1224903, 2016; in the data active = normalised signal below about 0.5;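 note: 100 nL library stock added to about 20 µL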
# Target sequence (O95931 whole entry, looked up): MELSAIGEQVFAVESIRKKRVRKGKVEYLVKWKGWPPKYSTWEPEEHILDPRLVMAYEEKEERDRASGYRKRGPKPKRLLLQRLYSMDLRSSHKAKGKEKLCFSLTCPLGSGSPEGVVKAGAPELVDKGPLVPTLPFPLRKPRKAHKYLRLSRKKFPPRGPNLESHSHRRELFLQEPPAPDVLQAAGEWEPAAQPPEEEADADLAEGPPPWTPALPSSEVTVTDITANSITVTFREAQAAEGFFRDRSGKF
# CBX7 inh z-score – second read-out of CBX7 inh, no call of its own (marks repeat the call); z-score; measured here: z-score of CBX7 signal; some inactives read as strong as hits; reference of the scale not given here;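 same signal on another scale; lower means less binding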
# An asterisk follows results filed as active; & = joins results of further samples. Some of the compounds tested; rates above refer to the full screens.
Structure	CBX7 inh z-score	CBX7 inh
CCCN(CCC)C(=O)c1cn(CC)c2nc(C)ccc2c1=O	0.79	1.1
Cc1noc(/C=C/c2cccs2)c1S(=O)(=O)N1CCC(C(=O)O)CC1	-0.13	0.99
COc1cccc(-c2nc(CS(=O)(=O)CC(=O)Nc3ccc(F)cc3F)c(C)o2)c1	-0.35	0.99
CCOc1ccc(C(=O)Nc2ccc3oc(-c4cccc(Cl)c4)nc3c2)cc1	0.63	1.1
O=C(NCCCn1ccnc1)c1cc(-c2ccc(Br)cc2)on1	-1.5	0.93
COCc1cc(C)nc2sc3c(-c4ccc(F)cc4F)onc3c12	1.2	1.1
CCN(CC)C(C(=O)NC1CCCCC1)c1ccc(OC)cc1 (stereo not drawn)	1.7	1.2
CCOc1ccc(Nc2nc(C)nc3sc(C)c(C)c23)cc1	-0.48	0.98
Nc1ccccc1-c1nnc(N2CCOCC2)o1	1	1
COc1ccc(N2Cc3cccc(C(=O)Nc4cc(C)cc(C)c4)c3C2=O)cc1	-5.1	0.79

# Additional records
Structure	CBX7 inh z-score	CBX7 inh
N#Cc1cccc(NC(=O)CCc2nc(-c3ccccc3F)no2)c1	-0.89	0.94
CCc1c(C)sc(NC(=O)c2cc(-c3ccc(Cl)cc3)on2)c1C#N	0.17	1.1
CC(NC(=O)C(=O)NCc1ccccn1)C(c1cccs1)N1CCN(c2ccccc2F)CC1 (stereo not drawn)	-0.11	0.99
Cc1ccc(NC(=O)[C@H](CSCc2ccccc2)N2Cc3ccccc3C2=O)cc1F	-2.5	0.89
CCc1ccc(NS(=O)(=O)c2ccc3[nH]cc(C(=O)NCc4ccc(F)cc4)c(=O)c3c2)cc1	1.7	1.1
CC(C)CCn1c(=O)c(-c2ccc3ccccc3n2)cc2ccccc21	6.4	1.5
O=C(NCCN1CCOCC1)c1cc2n(n1)C(C(F)(F)F)CC(c1ccc(F)cc1)N2 (stereo not drawn)	2.1	1.2
Cc1ccc(S(=O)(=O)N2CCC(C(=O)NC3CCCCC3)CC2)cc1	-1.8	0.9
CC(C)(C)c1ccc(C(=O)Nc2cccc(-c3nc4ccccc4[nH]3)c2)cc1	-2	0.73
COc1cccc(CNC(=O)c2cc(=O)[nH]c3ccccc23)c1	-0.009	0.99

# The list goes on.
Structure	CBX7 inh z-score	CBX7 inh
CCOC(=O)c1sc2nc(C)nc(Nc3ccc(Cl)cc3)c2c1C	0.78	1
COc1ccc(-c2nc(NC(C)=O)sc2-c2ccc(OC)cc2)cc1	-1.7&0.016	0.89&1
Cc1csc(NC(=O)CCCC2=NS(=O)(=O)c3ccccc3N2)n1	-0.61	0.95
COCCNC(=O)C1CCN(S(=O)(=O)c2c(C)noc2/C=C/c2cccs2)CC1	1.1	1
COC(=O)c1c(NC(=O)COc2c(C)cccc2C)sc2c1CCCC2	1.4	1
O=C(CCCn1c(=O)c2sccc2n(Cc2ccc(F)cc2)c1=O)NCc1ccccc1	0.26	1
Cc1ccc(C)c(-c2csc(Nc3ncccn3)n2)c1	0.042	1
O=C(Nc1ccc2oc(-c3ccc(Cl)cc3Cl)nc2c1)c1ccccc1	1.3	1
c1ccc(-c2nnc3sc(-c4ccccn4)nn23)cc1	-5.9	0.8
O=C(CSc1n[nH]c(-c2ccccc2)n1)Nc1ccccn1	-2.6	0.81

# Continued:
Structure	CBX7 inh z-score	CBX7 inh
COCCNC(=O)c1ccc2c(c1)ncn2-c1cc(C)ccc1OC	0.63	1.1
Cc1ccc(-c2nn(C)c(=O)c3ccccc23)cc1S(=O)(=O)N1CCOCC1	-0.16	0.95
COCCNC(=O)c1c[nH]n2c(=O)cc(C3CCN(C(=O)OC(C)(C)C)CC3)nc12	0.19	1
Cc1ccc(NC(=O)CSc2nc3ncccc3[nH]2)cc1C	-0.55	0.95
Cc1ccccc1Cc1c(C)nc2nc(SCC(=O)NCCCN3CCCC3)nn2c1C	0.053	1
CC1CCc2c(C(=O)NCc3ccccn3)csc2C1 (stereo not drawn)	0.41	1
O=C(CN1C(=O)CC(c2ccccc2)Sc2ccccc21)Nc1ccc2c(c1)OCO2 (stereo not drawn)	-1.7	0.9
Cc1cccc(N2CCN(C(=O)Cc3c(C(=O)O)[nH]c4ccccc34)CC2C)c1 (stereo not drawn)	0.91	1.1
Cc1cccc(NS(=O)(=O)c2ccc3c(c2)CCN3C(=O)C2CC2)c1	-1.7	0.94
COc1cc(C2C(N3C(=O)c4ccccc4C3=O)C(=O)N2c2ccc(C)c(C)c2)cc(OC)c1OC (stereo not drawn)	-5.9	0.79

# An excerpt of these results, as labelled records:
SMILES: Cc1cccc(NS(=O)(=O)c2ccc3c(c2)CCN3C(=O)C2CC2)c1
  CBX7 inh z-score = -1.7	CBX7 inh = 0.94

SMILES: COc1cc(C2C(N3C(=O)c4ccccc4C3=O)C(=O)N2c2ccc(C)c(C)c2)cc(OC)c1OC (stereo not drawn)
  CBX7 inh z-score = -5.9	CBX7 inh = 0.79

SMILES: Cc1cccc(N2CCN(C(=O)Cc3c(C(=O)O)[nH]c4ccccc34)CC2C)c1 (stereo not drawn)
  CBX7 inh z-score = 0.91	CBX7 inh = 1.1

# Following part
Structure	CBX7 inh z-score	CBX7 inh
CCCCC(=O)N1CC(=O)Nc2ccc(Cl)cc2C1c1ccc(F)cc1 (stereo not drawn)	-0.23	0.99
COc1ccc(CCN2C(=O)C3C4C=CC(C4)C3C2=O)cc1OC (stereo not drawn)	-0.038	1
CCC(=O)N1c2ccc(S(=O)(=O)NCCc3ccc(Cl)cc3)cc2CC1C (stereo not drawn)	-0.096	0.98
CCN(CC)C(=O)CN1C(=O)C(O)(CC(=O)c2ccc(Br)cc2)c2ccccc21 (stereo not drawn)	-0.091	0.96
Cc1oc(-c2ccccc2Cl)nc1C(=O)NCCc1ccccc1	-0.17	0.98
CCOc1ccc(-c2cc(C(=O)N3CCN(CC)CC3)c3ccccc3n2)cc1	-0.55	0.98
COc1cccc(-c2nc(CS(=O)(=O)CC(=O)N3CCN(c4cccc(C)c4)C(C)C3)c(C)o2)c1 (stereo not drawn)	-2	0.95
CCC1Oc2ccccc2N(CC(=O)NCCc2ccc(OC)c(OC)c2)C1=O (stereo not drawn)	0.58	1
COc1cccc(-c2nc(-c3ccc(NC(=O)c4ccncc4)cc3)no2)c1	-1.7	0.91
CCOC(=O)c1cccc(NS(=O)(=O)c2ccc3c(c2)CCN3C(=O)C2CCC2)c1	-1.8	0.95

# The list continues.
Structure	CBX7 inh z-score	CBX7 inh
CC(=O)c1c(C)nn2c3ccccc3n(CC(=O)O)c12	-2.1	0.92
CC(C)CCNC(=O)CN1C(=O)CSc2ncccc21	0.17	1
CCOC(=O)c1nnn(-c2nonc2N)c1CN1CCOCC1	1.2	1.1
Cc1onc(-c2ccccc2Cl)c1C(=O)N1CCC(Cc2ccccc2)CC1	-0.55	0.98
COc1cc(OC)cc(C(=O)NCc2cccnc2)c1	0.45	1
CC1CCN(c2nc(-c3cccs3)cc(C(F)(F)F)n2)CC1	25	1.5
Cc1cccc(Nc2nc3nonc3nc2Nc2cc(C)ccc2C)c1	-1.3	0.95
CCCOc1ccc(N2C(=O)CC(N3CCC(C(=O)O)CC3)C2=O)cc1 (stereo not drawn)	1.2	1.1
CCC1Oc2ccc(C)cc2N(CC(=O)NCCc2ccc(Cl)cc2)C1=O (stereo not drawn)	-1.8	0.9
O=C(c1ccccc1)N1CCN(C2CC(=O)N(c3ccc(Cl)cc3)C2=O)CC1 (stereo not drawn)	-3.2	0.8

# More records:
Structure	CBX7 inh z-score	CBX7 inh
CC(CNC(=O)Cn1ncc2ccsc2c1=O)c1ccccc1 (stereo not drawn)	1.5	1
CCN1CCN(c2ccc(NC(=O)c3cccc4c3C(=O)N(c3ccc(OC)cc3)C4)cc2)CC1	-1.8	0.9
Cc1cccc(-c2noc(-c3cccc(Cl)c3)n2)c1	11	1.4
O=C(NCc1ccc(F)cc1Cl)c1ccc2c(c1)ncn2C1CCCC1	-2.9	0.82
CCC(C)[C@@H](C(=O)Nc1ccc(C)cc1)N1Cc2ccccc2C1=O (stereo partly drawn)	-1.3	0.93
CC1=C(C(=O)Nc2cccc(C)n2)C(c2cccs2)C2=C(CC(C)(C)CC2=O)N1 (stereo not drawn)	0.064	1
Cc1cc(OCC(=O)Nc2nc3ccccc3s2)ccc1Cl	0.043	1
CCN1CCN(CCCNC(=O)C2CCCN(C(=O)c3cc4sccc4n3CC)C2)CC1 (stereo not drawn)	0.65	1.1
Cc1ccc(C)c(Cn2c(=O)n(CCCCCC(=O)NCc3ccccc3)c(=O)c3sccc32)c1	0.54	1
Cc1ccc(CCNC(=O)CNC(=O)c2cc3ccccc3o2)cc1	1.6	1.1

# More entries
Structure	CBX7 inh z-score	CBX7 inh
O=C(CCn1nc(-c2ccc(Cl)cc2)ccc1=O)N1CCCC1	-3	0.84
CC(C)NS(=O)(=O)c1ccc(C2CNC(=O)C2)cc1 (stereo not drawn)	1.9	1.2
CC(C)Oc1ccc(C2CC(=O)N(c3cccc(C(=O)O)c3)C2=O)cc1 (stereo not drawn)	0.037	1
CCCCNC(=O)c1ccc2c(c1)N=C(CCC)c1cc(C)ccc1S2	-4	0.79
CCCN(CCC)CCCNC(=O)CCC(=O)Nc1ccc2nc(N3CCN(C)CC3)cc(C)c2c1	0.77	1
Cc1cc(N2C(=O)c3ccc(Oc4ccc(N)cc4)cc3C2=O)no1	0.36	1
CCOc1ccc(C2C(C(=O)Nc3cccc(C)n3)=C(C)NC3=C2C(=O)CC(C)(C)C3)cc1 (stereo not drawn)	4.1	1.1
CCOC(=O)C1CCN(c2c(NCCOC)c(=O)c2=O)CC1	-0.37	0.98
COc1ccc(Cc2nnc(-c3ccc(C)cc3)o2)cc1OC	0.29	1
COc1ccccc1NC1=C(C(=O)c2ccccc2)N(C)S(=O)(=O)c2ccccc21	-7.9	0.76

# Next part:
Structure	CBX7 inh z-score	CBX7 inh
Cc1ccc(C)c(NC(=O)c2cc(C)nn2-c2ccccc2)c1	2.3	1.2
O=C(Nc1ccc(O)c(-c2nc3ccccc3s2)c1)c1ccccc1Cl	3.2	1.1
O=C(C1CC1)N1CCc2cc(S(=O)(=O)N3CCN(c4ccc(F)cc4)CC3)ccc21	0.18	1
CCS(=O)(=O)N1CCC(C(=O)NCc2ccccc2Cl)CC1	0.54	1
CCCNC(=O)c1ccc2c(c1)ncn2-c1ccc(CC)cc1	-0.63	0.96
CN1CCN(CCCNC(=O)CCc2nc(-c3ccccc3F)no2)CC1	0.5	1
COc1cccc(CNC(=O)c2cc(-c3ccc(Cl)s3)nc3ccccc23)c1	0.028	1
COc1cc(C(=O)Nc2nnc(COc3ccccc3)s2)cc(OC)c1OC	1	1.1
CCCCCCCNC(=O)CCn1nc(-c2ccc(C)cc2)ccc1=O	-0.96	0.96
O=C(CCc1ccccc1)Nc1c2c(nn1-c1cccc(Cl)c1)CSC2	2.7	1.1

# Next section.
Structure	CBX7 inh z-score	CBX7 inh
CC(=O)NS(=O)(=O)c1ccc(NC(=O)c2cc(-c3cccs3)nc3ccccc23)cc1	-0.002	1
O=C(Nc1ccc(S(=O)(=O)Nc2cnc3ccccc3n2)cc1)c1cccs1	1.4	1.1
O=C(Nc1nc(-c2ccccc2)ns1)c1ccc(F)cc1	-1	0.9
COc1ccc(-c2csc(NC(=O)c3ccc(S(=O)(=O)N4CC(C)CC(C)C4)cc3)n2)cc1C (stereo not drawn)	-1.5	0.92
CC1CC(O)CN(C)C1C (stereo not drawn)	0.49	1
CC(C)CC(=O)Nc1ccc(-c2nc3cc(Cl)ccc3o2)cc1	2.3	1.1
C=CCn1c(SCc2cccnc2)nc2cc(C(=O)N3CCOCC3)ccc2c1=O	-2.4	0.85
COc1ccc(NC(=O)Cn2ccc3ccccc3c2=O)cc1Cl	4.1	1.5
CCOc1ccc(S(=O)(=O)NCCc2c(C)[nH]c3ccc(Br)cc23)cc1	-0.48	0.52
COc1ccc(NC(=O)CC2C(=O)N(c3cccc(OC)c3)C(=O)N2Cc2ccc(F)cc2)cc1 (stereo not drawn)	0.4	1

# 5 compounds picked at random from those above:
Structure	CBX7 inh z-score	CBX7 inh
C=CCn1c(SCc2cccnc2)nc2cc(C(=O)N3CCOCC3)ccc2c1=O	-2.4	0.85
COc1ccc(-c2csc(NC(=O)c3ccc(S(=O)(=O)N4CC(C)CC(C)C4)cc3)n2)cc1C (stereo not drawn)	-1.5	0.92
O=C(Nc1ccc(S(=O)(=O)Nc2cnc3ccccc3n2)cc1)c1cccs1	1.4	1.1
COc1ccc(NC(=O)CC2C(=O)N(c3cccc(OC)c3)C(=O)N2Cc2ccc(F)cc2)cc1 (stereo not drawn)	0.4	1
CC1CC(O)CN(C)C1C (stereo not drawn)	0.49	1

# An excerpt from above in order of SMILES length, low to high:
Structure	CBX7 inh z-score	CBX7 inh
CC1CC(O)CN(C)C1C (stereo not drawn)	0.49	1
COc1ccc(NC(=O)Cn2ccc3ccccc3c2=O)cc1Cl	4.1	1.5
CCOc1ccc(S(=O)(=O)NCCc2c(C)[nH]c3ccc(Br)cc23)cc1	-0.48	0.52

# The list goes on:
Structure	CBX7 inh z-score	CBX7 inh
O=C(Nc1ccc2c(c1)OCO2)c1cnc2ccccn2c1=O	-0.35	0.99
CCC1=Nc2cc(C(=O)NCCCN(C)Cc3ccccc3)ccc2Sc2ccc(C)cc21	-4.8	0.74
O=C(COc1ccc(Cl)cc1)NCc1nnc(SCC(=O)NC2CCCC2)o1	1.6	1.1
CCOC(=O)c1ccc(NC(=O)CN2C(=O)COc3ccc(S(=O)(=O)N(CC)CC)cc32)cc1	-0.069	1
COc1ccc(-c2nc(C)oc2-c2ccc(OC)cc2)cc1	-2.2	0.65
COc1ccccc1OCC(=O)N(Cc1ccc(Cl)cc1)C1CCS(=O)(=O)C1 (stereo not drawn)	1.3	1
CC(Oc1ccccc1)C(=O)Nc1nnc(-c2ccc3c(c2)OCO3)s1 (stereo not drawn)	0.77	1.2
Cc1nc2c(C(=O)NCC3CCCO3)cnn2c(C)c1Cc1cccc(Cl)c1 (stereo not drawn)	2	1.1
COc1cccc(NC(=O)Cn2nc(Cc3cccnc3)c3ccccc3c2=O)c1	0.22	1
CCOc1ccc(CNC(=O)c2cc3c(-c4ccc(OC)c(OC)c4)nn(C)c3s2)cc1	-0.06	0.99
